# AID504770 – growth inhibition of E. coli YBA685, primary screen, V. cholerae RctB inhibitors; E. coli YBA685 rctB-dependent plasmid, OD600 growth, 3 h; active compounds read low; z-score (concentration not given with the values); actives 0.27% (n = 130,000); AID 504770, 2011;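 active = z-score under -2 on both plates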;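 note: wells of about 30 µL received 100 nL stock; score is relative to mean and SD of the test wells; the first replicate is given; strong numbers were not always called active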
# Ba CapD inh – Bacillus anthracis CapD inhibitors, primary screen, biochemical, fluorescence intensity. CapD gamma-glutamyltranspeptidase (Bacillus anthracis Ames Ancestor). purified CapD enzyme, fluorescence intensity read-out; active compounds read low; some hits fall short of the stated cut. z-score (test concentration not listed). actives 0.23% (n = 140,000). AID 492967, 2010;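 active = z-score under -4 in either of two replicates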;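 note: stock transfer was 100 nL into about 40 µL; score is relative to mean and spread of the plate; one replicate is shown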
# Starred values were filed as active, the others as inactive; nt = no result given. These rows are one share of the data; rates above refer to the full screens.
SMILES,AID504770,Ba CapD inh
Oc1cccc(C2Nc3cccc4cccc(c34)N2)c1,nt,9.3
CC1CN(C(=O)c2ccc3ccccc3n2)CC(C)O1 (stereo not drawn),-0.6,nt
CC1(C)CC(=O)OC1(C)C,-0.45,nt
Cc1ccc(CCC(N)=O)o1,0.7,0.41
O=C(Nc1ccccc1)C1CCN(c2ncnc3c2nc2n3CCCCC2)CC1,-1.3,0.54
CCSc1nc2ccccc2n1CC(=O)Nc1ccc([N+](=O)[O-])cc1,nt,-1.2
Cc1ccc2nsnc2c1N(S(C)(=O)=O)S(C)(=O)=O,-0.15,4.6
COc1ccc(COC(=O)C2=C(C)NC(=O)NC2c2cc(OC)c(O)c([N+](=O)[O-])c2)cc1 (stereo not drawn),nt,-0.12
Clc1ccc(CC2=NCCN2)cc1,-0.1,0
O=C(CSc1nnc(-c2cccs2)n1-c1ccccc1)NCCC1=CCCCC1,-1.4,nt
CCCCC1(CC)NC(=S)N(c2ccccc2)N1 (stereo not drawn),nt,0.91
O=C(CCC(=O)n1ncc2ccc(Cl)cc21)N1CCN(c2ccccc2)CC1,-0.4,0.27
O=C(NC1CCCCCC1)C(F)(F)F,-1.2,0.02
CCC(C)NC(=O)c1cn(C)c(=O)c2cc(OC)c(OC)cc12 (stereo not drawn),-0.7,1.7
CC(C)(C)c1oc(C(=O)O)cc1CN1CCCC1,-0.6,-0.09
COC(CN(C)c1ncnc2sccc12)OC,-0.7,1.1
Cc1nc2ccccc2c2oc(C(=O)NCCCN3CCCC3=O)cc12,0.45,3.2
CCC1CC(O)C(C)C(C)S1 (stereo not drawn),1,0.025
O=C(CN1CCc2ccccc21)N1CCc2ccccc21,-0.45,-0.1
O=c1[nH][nH]c(=O)c2c(N=Cc3c[nH]c4ccccc34)cccc12,0.15,57
O=C(CSc1nc2ccccc2c(=O)n1NC(=O)CCc1c[nH]c2ccccc12)NCc1ccccc1Cl,nt,-0.43
CCOc1ccc(NC(=O)CSc2nc3ccccc3c(=O)n2NC(=O)c2cccs2)cc1,nt,0.035
COc1ccc(-c2cc(C#N)nc(N3CCN(c4ccccc4)CC3)n2)cc1,nt,0.59
CN1C/C(=C\c2ccc(N(C)C)cc2)C(=O)/C(=C/c2ccc(N(C)C)cc2)C1,2,-0.75
CCC1=C/C(=C\c2ccc3c(c2)OCO3)C(=O)S1,-0.3,-0.7
SMILES,AID504770,Ba CapD inh
O=C(Nc1ccc(-c2ccc(Br)cc2)oc1=O)c1cccs1,nt,0.075
Cc1ccc(N(CCCCN2C(=O)c3ccccc3C2=O)C(=O)c2cccc(Cl)c2)cc1,-0.05,28
N#Cc1cnn2c(-c3ccc(Oc4ccccc4)cc3)ccnc12,-0.1,15
Nc1c(C(=O)c2ccc(Br)cc2)sc2[nH]c(=O)c(C(=O)O)cc12,-0.05,-0.01
O=C(OCCSC1=NS(=O)(=O)c2ccccc21)c1ccccc1Br,nt,-0.06
Nn1c(Cc2ccccc2F)nnc1SCC(=O)NCC(F)(F)F,-0.05,nt
COc1ccc(-n2cnnc2SCc2c(C#N)oc3ccc(Br)cc23)cc1,-0.8,nt
CN1CCSc2ccc(C(=O)N3CCCCCC3)cc21,0.05,25
COC(=O)c1nn(-c2ccccc2)c(Cl)c1/C=N/OCc1ccc(C)cc1,nt,-0.36
O=C(c1ccc(S(=O)(=O)N2CCCCC2)cc1)N(c1ccccc1)C1C=CS(=O)(=O)C1 (stereo not drawn),-0.95,nt
COc1ccc(N2CCN(CCCNC(=O)C3CCN(S(=O)(=O)c4ccc(Br)s4)CC3)CC2)cc1,1.2,-0.23
COc1cc(C(=O)OCCCN2CCOCC2)ccc1O,-0.6,nt
NC(=O)COc1ccc(C2C3=C(CCCC3=O)OC3=C2C(=O)CCC3)cc1Cl,-0.55,7.5
O=C1CN(c2ccccc2)C(=O)C1C(=O)NCc1ccccc1 (stereo not drawn),0.55,nt
O=C(N/N=C\c1cccc(Br)c1)c1ccccc1-n1cccc1,nt,-0.93
COC(=O)c1c(C(=O)OC)c(-c2ccc(Cl)cc2)n2c1CS(=O)C2 (stereo not drawn),nt,-0.35
COc1cc(/C=C/C(=O)C2CC2)cc(OC)c1OC,-0.05,nt
COc1cc(CNC(C)(C)CO)cc(Br)c1OCc1ccc(F)cc1,-0.05,-0.45
O=C(NC1CCCCC1)n1c(=O)oc2cc(S(=O)(=O)N3CCCCC3)ccc21,-0.5,-0.16
COc1ccc(OC(=O)c2ccc3ncccc3c2)cc1,-0.45,0.44
CCc1cc(CN2CCOCC2)c(NC(=O)c2ccccc2)s1,0.4,nt
CCCCN(C)C(=O)CN1C(=O)CCSc2ccccc21,-0.8,0.03
CC(C)(C)Nc1n[nH]c(=S)s1,0.05,nt
CCOc1ccsc1C(=O)NNC(=O)OCC1C(c2ccccc2)OC2(C)CCCC(=O)N12 (stereo not drawn),nt,0.42
CC(c1ccccc1)N1CCC(=O)C2=C1CCCC2 (stereo not drawn),-0.7,-1.7

# A second format for 4 compounds above:
O=C(N/N=C\c1cccc(Br)c1)c1ccccc1-n1cccc1
  AID504770 = nt
  Ba CapD inh = -0.93

COC(=O)c1c(C(=O)OC)c(-c2ccc(Cl)cc2)n2c1CS(=O)C2 (stereo not drawn)
  AID504770 = nt
  Ba CapD inh = -0.35

COc1cc(/C=C/C(=O)C2CC2)cc(OC)c1OC
  AID504770 = -0.05
  Ba CapD inh = nt

COc1cc(CNC(C)(C)CO)cc(Br)c1OCc1ccc(F)cc1
  AID504770 = -0.05
  Ba CapD inh = -0.45

# Other entries follow.
SMILES,AID504770,Ba CapD inh
O=[N+]([O-])c1ccc(N2CCN(S(=O)(=O)c3cccc4nonc34)CC2)c(C(F)(F)F)c1,nt,-0.83
CC(C)CC(=O)N1CC(=O)Nc2ccc(Cl)cc2C1c1ccc(F)cc1 (stereo not drawn),-0.15,0.27
CC(C)NC(=O)CSc1nc2ccccc2c(=O)n1-c1ccccc1,1.1,-0.49
O=C(NCc1ccco1)c1cc2c(Cl)nc3ccccc3c2s1,-1,0.91
COc1ccc(NC(=S)NC(=O)c2ccccc2)c([N+](=O)[O-])c1,nt,-1.8
CCOc1ccc2nc(Nc3nc4ccccc4c(=O)[nH]3)nc(C)c2c1,nt,4.1
CCN(CC)CCCOc1ccc(C)cc1C,-0.3,-0.26
CCCC1=C(C(=O)OCC)C(c2ccccc2OC)C(C#N)=C(N)O1 (stereo not drawn),-1.1,4.9
O=C(CC1(CC2=NS(=O)(=O)c3ccccc3N2)CCCC1)NCCc1ccccc1,2.3,-0.3
COC(=O)C1=CN(Cc2ccc(OC)c(OC)c2)C=C(C(=O)OC)C1c1ccc(OC)c(OC)c1OC,nt,58
C=CCn1c(SCC(=O)Nc2ccccc2C)nc2sc(CC)cc2c1=O,nt,-0.23
CCOC(=O)c1c(/N=C/c2c(C)[nH]n(-c3ccc(C)cc3)c2=O)sc(C)c1-c1ccc2cc(OC)ccc2c1,nt,0.49
CCN(c1ccccc1)S(=O)(=O)c1ccc2[nH]cc(C(=O)NCc3ccccc3)c(=O)c2c1,0.1,-0.76
O=S(=O)(NC1CC2CCC1C2)c1ccc2c(c1)OCCO2 (stereo not drawn),-0.25,nt
COc1ccc(OC)c(N(CC(=O)Nc2ccc(Br)cc2)S(=O)(=O)c2ccccc2)c1,nt,0.43
CCCNC(=O)CSc1nnc(SCC(=O)NCCCn2nc(C)cc2C)s1,-0.85,nt
CC(C)(C)c1cc2nc(C(F)(F)F)cc(N3CCN(C(=O)Nc4ccccc4)CC3)n2n1,-1,40
O=C1Nc2ccccc2NC1CC(=O)N1CCC2(CC1)OCCO2 (stereo not drawn),-0.95,6.7
O=C(NCCC1CCCCN1S(=O)(=O)c1ccccc1)Nc1ccccc1 (stereo not drawn),-0.2,nt
CC1CC(C)CN(S(=O)(=O)c2ccc3[nH]cc(C(=O)NCCC4=CCCCC4)c(=O)c3c2)C1 (stereo not drawn),-0.45,0.005
Cc1cc(C)n(CCCNC(=O)c2ccc3ccccc3c2)n1,-0.15,nt
CCOC(=O)c1cnc2c(C)cc(C)cc2c1Nc1ccc2c(c1)OCCO2,-1.2,-0.33
Cc1ccc2c(c1)sc1ncc(NC(=O)c3ccccc3)c(=O)n12,0.1,2
O=C(NCCNc1nccc(C(F)(F)F)n1)c1cccc(C(F)(F)F)c1,0,4.7
COc1cc(CO)ccc1OCC(=O)NC1CCCCC1,0.45,-1.4
SMILES,AID504770,Ba CapD inh
CCOc1cccc2c1N(C(=O)c1ccccc1)C(C)(C)C1=C2C2(SC(C(=O)OC)=C(C(=O)OC)S2)C(C(=O)OC)=C(C(=O)OC)S1,nt,-1
CCc1c(C)[nH][n+]2cnn(Cc3ccc(Cl)cc3)c2c1=O,-0.7,nt
COC(=O)C1=C(C(=O)OC)SC2(S1)C(C(=O)OC)=C(C(=O)OC)SC1=C2c2cc(C)ccc2N(C(=O)CC(C)C)C1(C)C,nt,-0.79
CC[C@H](CC[C@@H](C)[C@H]1CC[C@H]2[C@@H]3CC=C4C[C@@H](O)CC[C@]4(C)[C@H]3CC[C@]12C)C(C)C,nt,0.08
COc1ccc(C2=NN(C(=O)CCC(=O)O)C(c3ccc(OC)c(OC)c3)C2)cc1 (stereo not drawn),nt,0.67
CN(C(=O)c1ccc(F)cc1)c1ccc(OCC(=O)NCc2ccncc2)cc1,-0.15,0.3
C[C@]12CCC3[C@@H](CC[C@@H]4C[C@H](O)CC[C@]34C)[C@@H]1CCC2=O (stereo partly drawn),nt,-0.57
CCCN1C2CCCC1CC(NC(=O)NC1CCCCC1)C2 (stereo not drawn),-1,nt
Cc1ccc(-c2nc3ccc(C)cn3c2CC(=O)N(C)C)cc1,0.4,nt
Nc1cccc(C(=O)NC23CC4CC(CC(C4)C2)C3)c1,0.55,nt
CCOC(=O)c1cc(-c2ccc3c(c2)OCCO3)n[nH]1,0.1,0.95
Cc1n(O)c2c3c(c4c(c2[n+]1[O-])n(O)c(C)[n+]4[O-])[n+]([O-])c(C)n3O,1.9,nt
O=C(CCc1ccccc1)Oc1ccc(F)cc1,0.1,-0.53
O=C(O/N=C1\CCCCC1c1ccc([N+](=O)[O-])cc1[N+](=O)[O-])C1CCCC1 (stereo not drawn),nt,-0.64
CC(=O)N1C(C(=O)O)CSC12CCN(C)CC2 (stereo not drawn),-1,-0.25
Cn1nc(-c2ccccc2)c(C=Nc2cccc(C(F)(F)F)c2)c1Cl,nt,0.62
CCCCn1c(C)c(C(=O)OCC)c2cc(OC(=O)COc3ccccc3C)c3ccccc3c21,nt,-0.62
Nc1nc(Nc2ccc(Cl)c(Cl)c2)nc(-c2cc3ccccc3o2)n1,-0.5,2
COc1cc(OC)c(OC)cc1/C=C1/SC(=S)N(CC(=O)O)C1=O,nt,-3.8*
CCSc1nccc(-c2ccc3c(c2)CCC(C)(C)O3)n1,-0.9,11
CCCCNc1nc(SCC(=O)N(C)CCCC)nc2ccccc12,nt,2.5
C[C@@H]1NCCc2cc(O)c(O)cc21,nt,-0.4
CCOC(=O)c1c(-c2ccccc2)oc2c1cc(OC(=O)c1cccs1)c1ccccc12,nt,0.37
Cc1ccc(-c2cnc(-c3ccc(Br)cc3)o2)cc1,2.2,-0.79
NOCC(=O)N1CCN(c2ncc(C(F)(F)F)cc2Cl)CC1,nt,-0.24

# Of the compounds above, these contain a furan ring, fused or not:
SMILES,AID504770,Ba CapD inh
Cc1ccc(CCC(N)=O)o1,0.7,0.41
CC(C)(C)c1oc(C(=O)O)cc1CN1CCCC1,-0.6,-0.09
Cc1nc2ccccc2c2oc(C(=O)NCCCN3CCCC3=O)cc12,0.45,3.2
COc1ccc(-n2cnnc2SCc2c(C#N)oc3ccc(Br)cc23)cc1,-0.8,nt
O=C(NCc1ccco1)c1cc2c(Cl)nc3ccccc3c2s1,-1,0.91
Nc1nc(Nc2ccc(Cl)c(Cl)c2)nc(-c2cc3ccccc3o2)n1,-0.5,2
CCOC(=O)c1c(-c2ccccc2)oc2c1cc(OC(=O)c1cccs1)c1ccccc12,nt,0.37

# Next part:
SMILES,AID504770,Ba CapD inh
CCSc1nnc(NC(=O)CC23CC4CC(CC(C4)C2)C3)s1,-0.15,0.42
CCc1cc2c(=O)oc(-c3ccc(F)cc3)nc2s1,nt,-0.24
COC(=O)COc1c(C)cc(-c2nn(C)c(=O)c3ccccc23)cc1C,nt,0.33
CO/N=C/NC(=O)C1CCN(c2ncc(C(F)(F)F)cc2Cl)CC1,nt,0.49
CCCCOc1ccc(C2CC(=O)C3=C(C2)c2c(ccc4ccccc24)NC3c2ccc(Br)cc2)cc1 (stereo not drawn),nt,2.1
CN(C(=O)Cn1c(=O)oc2ccccc21)C1CCCCC1,1.2,-0.2
COC(=O)c1ccc(N2C(=O)C3C4C=CC(C(OC(C)=O)OC(C)=O)(O4)C3C2=O)cc1 (stereo not drawn),nt,-0.79
FC(F)(F)c1ccc(C2Nc3cccc4cccc(c34)N2)cc1,nt,0.39
CC(C)=C1C(=O)Nc2ccc(S(=O)(=O)Nc3ccccc3)cc21,-0.3,-0.36
COc1ccc2[nH]cc(S(=O)(=O)c3ccc(C)cc3)c2c1,-0.7,0.45
CCCCCC#CCOC(=O)N1CCN(Cc2cc(OC)c(OC)cc2Br)CC1,nt,-0.52
CCOc1ccc(N=CC2=C(O)CC(C)(C)CC2=O)cc1,1.2,-0.56
C/C(=N\OCc1cccc(C(=O)O)c1)c1ccc(Cl)cc1,nt,-0.37
CC(=O)N1CCC(=O)N(Cc2ccccc2)c2ccccc21,nt,-0.3
Cc1nc(C)c(Oc2ccc(Cl)cc2Cl)c(NCc2ccccc2)n1,0,-0.06
COc1ccc(-c2cccc(NS(=O)(=O)c3ccccc3)c2)nn1,0.6,-0.015
CCOC(=O)c1ccc(NCc2ccc(N(C)C)cc2)cc1,0.35,7.3
O=C(NC(=S)Nc1ccc2c(c1)CCC2)c1ccccc1,nt,-0.33

# Compound activity: PubChem, ICCB-Longwood Screening Facility, Harvard Medical School
